# PKD1 kinase inh: inhibitors of human PKD1 kinase; inhibition, %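 (about 10 µM by stock and volumes)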; Q15139; AID 797; hit rate 0.056% among 200,000; PKD1 kinase fluorescence polarization assay;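 active = inhibition of 50% or more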;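 also: controls were vehicle for no effect and a reference inhibitor for full effect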
# GALR2 agonist: activates the human galanin receptor 2; activation, %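 (tested at 5 µM)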; GALR2-expressing cells, agonist activation read-out; hit rate 0.48% among 140,000; AID 803;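 active = above mean plus 3 SD of all compounds, about 5% in these data, not always enough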;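 also: 0% = vehicle buffer wells and 100% = reference agonist at full effect; tested in CHO reporter cells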
# Target sequence (O43603 whole entry, looked up): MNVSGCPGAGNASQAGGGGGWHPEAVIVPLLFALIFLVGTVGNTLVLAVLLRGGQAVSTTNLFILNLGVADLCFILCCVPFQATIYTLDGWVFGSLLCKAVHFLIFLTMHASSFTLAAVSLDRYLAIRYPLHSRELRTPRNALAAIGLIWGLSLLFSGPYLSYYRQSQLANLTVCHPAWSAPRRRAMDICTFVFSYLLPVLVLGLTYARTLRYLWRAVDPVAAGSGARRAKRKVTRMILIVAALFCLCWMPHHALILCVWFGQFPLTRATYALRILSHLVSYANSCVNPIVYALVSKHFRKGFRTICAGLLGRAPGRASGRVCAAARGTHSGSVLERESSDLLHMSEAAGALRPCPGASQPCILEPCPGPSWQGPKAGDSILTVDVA
# RGS16-Gao: regulators of human RGS16-Galphao interaction. O15492+P09471. binding response (% of control), % at 10 µM. hit rate 0.38% among 220,000. AID 1441. bead-based flow cytometry RGS16-Galphao binding, fluorescence; actives lie on both sides;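 active = below 25% or above 175%, edge rows of some plates excepted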;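 also: Galphao activated by GDP with aluminum fluoride before binding; 100% = wells without compound and 0% = beads without RGS; some results beyond the cut were filed as inactive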
# Target sequence (O15492 whole entry, looked up): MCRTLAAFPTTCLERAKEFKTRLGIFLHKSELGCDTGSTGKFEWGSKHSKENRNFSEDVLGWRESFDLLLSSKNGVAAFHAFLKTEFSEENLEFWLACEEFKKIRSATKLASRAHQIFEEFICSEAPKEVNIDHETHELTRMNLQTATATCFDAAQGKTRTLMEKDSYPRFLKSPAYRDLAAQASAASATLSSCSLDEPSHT
# Target sequence (P09471 whole entry, looked up): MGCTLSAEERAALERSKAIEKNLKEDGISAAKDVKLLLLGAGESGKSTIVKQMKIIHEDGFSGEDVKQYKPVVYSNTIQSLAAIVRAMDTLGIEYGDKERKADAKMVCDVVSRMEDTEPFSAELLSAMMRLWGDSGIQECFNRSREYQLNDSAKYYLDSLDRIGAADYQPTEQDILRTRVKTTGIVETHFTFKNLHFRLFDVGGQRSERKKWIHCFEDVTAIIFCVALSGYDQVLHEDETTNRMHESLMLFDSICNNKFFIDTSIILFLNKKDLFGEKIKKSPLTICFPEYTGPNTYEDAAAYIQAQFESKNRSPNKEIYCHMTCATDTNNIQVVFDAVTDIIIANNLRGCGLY
# HSV augment: HSV replication enhancement. maximum fold increase. AID 1956. hit rate 0.005% among 220,000. HSV replication augmentation in cells, fold increase;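 active = peak rise of 1.5-fold or more in the series; inconclusive = self-fluorescent or not available for retest; tested in PC3 cells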;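 also: first round at 10 µM; read as green reporter fluorescence; hits show the peak of a series up to 25 µM; 1 = signal of infected wells without compound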
# Insulin prom inh: TRM-6 insulin promoter activity inhibition. TRM-6 cells (human fetal islet line), insulin promoter-eGFP reporter, imaging; reporter expression induced with tamoxifen. inhibition, % at 2 µM. hit rate 0.9% among 130,000. AID 1273;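 active = inhibition above the mean plus 3 SD, with well images judged a real hit on visual review, cut at about 60% in these data, passing the limit was not always enough; inconclusive = inhibition over the cutoff but images rejected on review; inactive = inhibition not above the cutoff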
# Insulin prom inh cell count: second read-out of Insulin prom inh, no call of its own (marks repeat the call); normalized cell count, %; measured here: cell count, toxicity; reference of the scale not given here;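 cells exposed to compound for 48 h; stained nuclei by imaging scaled within each plate; lower means fewer cells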
# HSV augment primary fold: further read-out of HSV augment, marked with its call; fold increase; compound at 10 µM; measured here: primary screen fold increase 10 uM; tested in PC3 cells;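 GFP signal in the first replicate; 1 = infected wells without compound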
# Starred values were filed as active, the others as inactive; i = inactive; ? = inconclusive; · = no result given.
SMILES,PKD1 kinase inh,GALR2 agonist,RGS16-Gao,HSV augment,HSV augment primary fold,Insulin prom inh,Insulin prom inh cell count
Cc1ccc(NC(=O)c2ccc3nc[nH]c3c2)cc1C,-1,0.7,102,i,1,·,·
COC(=O)c1ccccc1NC(=S)NC(NC(=O)c1ccco1)C(Cl)(Cl)Cl (centres undefined),-2,-1.1,96,i,1.1,-19,101
Clc1cccc(N/N=C/c2ccc(N3CCOCC3)cc2)c1,0,-1.0,99,i,1,25,109
CC1CCN(S(=O)(=O)c2ccc(C(=O)Nc3nnc(-c4ccncc4)o3)cc2)CC1,-11,·,102,i,0.92,9,112
O=C(NNC(=O)c1ccccc1[N+](=O)[O-])c1cnccn1,4,-0.8,72,i,0.75,·,·
CN(C)CCOC(=O)NCC12CC3CC(CC(C3)C1)C2,·,·,108,i,1.1,·,·
N#CCCn1cc(C=C(C#N)C#N)c(-c2ccc(-c3ccccc3)cc2)n1,0,-0.2,108,i,0.61,19,137
COC(=O)CCC(=O)NS(=O)(=O)c1ccc(N=NN2CCOCC2)cc1,-5,·,93,i,0.94,61,115
Cc1ccc(N(CC(=O)O)C2SC(=O)NC2=O)cc1 (centres undefined),-5,0.0,75,i,0.85,-31,167
COCc1cc(Sc2ccc(OC)cc2)nc(-c2ccccc2)n1,1,·,83,i,1,0,95
O=C(Nc1nc(-c2ccccn2)cs1)C1CCCC1,-6,·,102,i,0.98,·,·
COc1ccc(C(=O)NNC(=O)c2ccccc2[N+](=O)[O-])cc1Br,-11,0.4,98,i,0.94,-37,78
CCc1ccccc1NC(=O)Nc1ccc(F)cc1F,-2,·,102,i,1.1,10,109
C=CCn1c(SCn2nnc3ccccc3c2=O)nnc1-c1ccc(F)cc1,-4,-0.1,101,i,1.1,-4,135
CC1=C/C(=N\N=C2\NC(=O)C(CC(=O)Nc3ccccc3)S2)CC(C)(C)C1 (centres undefined),-3,·,99,i,0.92,·,·
OCC1(Cc2ccccc2)CCCN(Cc2ccc(-c3ccco3)cc2)C1 (centres undefined),-1,·,77,i,1.1,·,·
OCCN1CCN(CC(O)COc2ccc(Cl)cc2)CC1 (centres undefined),-1,-2.4,104,i,1,3,159
CCC(c1nnnn1C(C)(C)CC)N(CCCO)Cc1cc2cccc(C)c2[nH]c1=O (centres undefined),-30,0.3,103,i,0.98,-29,59
CN1CC(=O)N(CC(=O)Nc2cc(Cl)cc(Cl)c2)C1=O,3,·,103,i,1,·,·
Cn1c2ccccc2c(=O)c2c(O)cccc21,-3,·,98,i,0.79,·,·
Cc1cc(=O)[nH]c(SCC(=O)Nc2ccnc3ccccc23)n1,-1,·,119,i,0.96,·,·
Cc1ccc(NC(=O)C2CC(=O)N(Cc3ccccc3)C2)cc1S(=O)(=O)N1CCCCCC1 (centres undefined),-9,-1.7,99,i,0.78,·,·
CCN1CCC(NC(=O)Nc2cccc(C(F)(F)F)c2)CC1,2,·,100,i,0.94,·,·
CCCn1c(N)c(C(=O)CSc2nc(C)cs2)c(=O)[nH]c1=O,-8,-3.6,100,i,0.98,77*,118*
COc1ccc2c(c1OC)CCC2=O,-3,-1.9,103,i,0.78,19,72
# Later entries
SMILES,PKD1 kinase inh,GALR2 agonist,RGS16-Gao,HSV augment,HSV augment primary fold,Insulin prom inh,Insulin prom inh cell count
C=CCNC(=O)COC(=O)c1ccc(Cl)c(S(=O)(=O)N(Cc2ccccc2)c2ccccc2)c1,1,0.1,97,i,0.83,·,·
CCC(C)(C)NC(=O)C(c1ccc(F)cc1)N(Cc1cccs1)C(=O)c1cnccn1 (centres undefined),-2,·,100,i,0.91,·,·
CCN(CC)S(=O)(=O)c1ccc(O)c(C(=O)OCC(=O)N2c3ccccc3CC2C)c1 (centres undefined),·,·,103,i,0.86,·,·
CC(C)(C)C(=O)NCCc1nc2ccccc2n1CC(=O)c1ccc(Cl)cc1,-3,-1.4,·,i,1.1,0,74
CC1(C)Cc2ccccc2C2CC(O)C(=O)N21 (centres undefined),0,-0.7,96,?,·,·,·
CCN(C(=O)CSc1ccc2ccccc2n1)C1CCS(=O)(=O)C1 (centres undefined),-3,·,109,i,1.2,-38,104
Cn1cnnc1Sc1ccc(C(=O)NCCC23CC4CC(CC(C4)C2)C3)cc1[N+](=O)[O-],-3,-1.4,70,i,0.79,·,·
COc1cc2c(cc1OC)CN(C(=O)CSc1nnc(C)s1)CC2,-7,-0.9,79,i,0.75,-262,100
CCN1CCN(C(c2cccc(OC)c2OC)c2nnnn2Cc2ccco2)CC1 (centres undefined),-4,·,95,i,1,-67,111
O=C(O)CCCc1c(-[n+]2ccccc2)[nH]c2ccccc12,3,·,79,i,1,-25,90
CCC1CCCCN1Cc1ccc(OC)c(OC)c1 (centres undefined),6,1.1,104,i,0.97,-109,211
O=C(CSc1nncs1)NC(=O)NCc1ccccc1,3,-1.8,106,i,1.3,39,141
O=C(CO/N=C/c1ccc(Cl)cc1Cl)NNC(=O)c1cccc(Cl)c1,·,·,99,i,1,·,·
O=C(CSc1nc2ccccc2c(=O)n1CCCO)NCc1ccccc1,-4,-1.1,101,i,0.82,·,·
CC1Oc2ccccc2C=C1/C=N/NC(=O)c1ccccc1O (centres undefined),-1,-1.1,98,i,1.1,·,·
CC(=O)Nc1ccc(/C=C/c2ccc3cccc([N+](=O)[O-])c3n2)cc1,·,·,133,i,0.81,·,·
CCOC(=O)C1=C(O)CSC1=Nc1cccc2ccccc12,-9,0.0,102,i,0.91,-151,131
c1ccc(-c2nc(NCC3CCCO3)c3oc4ccccc4c3n2)cc1 (centres undefined),-10,-0.9,108,i,0.89,-25,151
Cc1ccc(S(=O)(=O)Nc2ccc(NC(=O)c3ccc(F)cc3)cc2)cc1,-4,·,84,i,0.9,18,123
Cc1ccc(Nc2nc3ccccc3c(=O)[nH]2)cc1C,-2,·,100,i,0.85,·,·
CC(C)Cn1c2c(c(O)c(C(=O)Nn3c(Cc4ccccc4)nc4ccccc4c3=O)c1=O)CCCC2,-8,-1.3,102,i,0.93,14,118
CCOc1ccc(C2C(C(=O)c3ccco3)=C(O)C(=O)N2Cc2cccnc2)cc1OC (centres undefined),-2,-0.2,99,i,0.97,7,144
CC(C)C(=O)N1CCC2(CC1)Oc1ccc(F)cc1C(=O)C21CC(c2ccc(Cl)cc2)=NO1 (centres undefined),·,·,101,i,0.88,·,·
COc1cccc(NC(=O)CCNC(=O)c2ccccc2Cl)c1,-8,·,93,i,0.92,·,·
CCOC(=O)CN(C(=O)COc1nc(-c2ccccc2)cc(C)c1C#N)c1ccc(C)cc1,·,·,102,i,0.98,·,·

# Brought forward from above: 3 compounds; new compounds follow.
SMILES,PKD1 kinase inh,GALR2 agonist,RGS16-Gao,HSV augment,HSV augment primary fold,Insulin prom inh,Insulin prom inh cell count
CC(C)C(=O)N1CCC2(CC1)Oc1ccc(F)cc1C(=O)C21CC(c2ccc(Cl)cc2)=NO1 (centres undefined),·,·,101,i,0.88,·,·
COc1cccc(NC(=O)CCNC(=O)c2ccccc2Cl)c1,-8,·,93,i,0.92,·,·
CCOC(=O)CN(C(=O)COc1nc(-c2ccccc2)cc(C)c1C#N)c1ccc(C)cc1,·,·,102,i,0.98,·,·
O=C1CSC(=O)N1CC(O)COc1ccc(Cl)cc1 (centres undefined),2,-0.3,95,i,0.72,·,·
O=C(Nc1ccccc1)c1cccc(=O)o1,·,·,96,i,0.91,·,·
Cc1nc(C)c(-c2csc(N)n2)s1,-4,·,102,i,1.1,-11,86
COC(=O)c1c(C(=O)OC)c(C)n(Cc2cccnc2)c1C,-8,-0.8,97,i,0.99,-107,126
COc1ccc(NC(=O)Nc2sc(NS(=O)(=O)c3ccccc3)nc2C)cc1,-5,·,107,i,1,27,146
CN(C)S(=O)(=O)c1ccc(Cl)c(NC(=O)COC(=O)CN2C(=O)NC(C)(C)C2=O)c1,5,-1.9,112,i,0.97,-41,104
c1ccc(CCn2nnc3ccccc32)cc1,·,·,111,i,0.8,·,·
O=c1[nH][nH]c2cc(=O)n(-c3cccc(C(F)(F)F)c3)nc12,5,·,100,i,0.92,·,·
Cn1c(Cc2cccs2)nnc1SCc1nc2ccccc2[nH]1,17,-1.7,107,i,0.99,·,·
Cc1ccc(N(C(=O)c2csnn2)C(C(=O)NC(C)(C)C)c2cccnc2)cc1 (centres undefined),1,·,86,i,0.97,·,·
c1ccc(CN2CCN(c3nc(-c4ccccc4)nc(-n4ccnc4)n3)CC2)cc1,-7,0.7,105,i,0.88,·,·
CCC(Cc1ccccc1)NC(=O)C1=C(C)C(=O)OC12CCC(C)CC2 (centres undefined),-3,·,50,i,1,-15,96
Cc1nn(Cc2ccc(C(=O)NN)cc2)c(C)c1Cl,·,·,102,i,1,·,·
CCNc1nc(NCC)nc(OCCOC(=O)Nc2ccccc2)n1,-5,-0.4,103,i,0.86,6,119
O=C(O)c1ccccc1C(=O)NCc1cccnc1,12,-0.7,98,i,0.9,·,·
Cc1nn(Cc2ccccc2)c2c1C(c1ccncc1)C(C#N)=C(N)O2 (centres undefined),·,·,102,i,1,·,·
Cc1ccc(C(=O)Nc2ccc(S(=O)(=O)N3CCN(C)CC3)cc2)o1,-5,-2.7,95,i,0.93,12,142
CN(C(=O)Nc1cnc2ccccc2c1)c1ccccc1,2,·,100,i,1,·,·
CCCc1nc2sc3c(c2c(=O)n1N)CCC3,-2,-0.4,99,·,·,24,129
CCOc1ccccc1Nc1ncnc2ccccc12,-8,1.8,80,i,0.93,24,70
CC(C)(C)C(=O)OC/C(N)=N/OC(=O)c1ccc(Cl)c(Cl)c1,·,·,83,i,0.95,·,·
COc1c(F)c(F)c(C(=O)O)c(Nc2ccccc2)c1F,-1,-2.4,107,i,0.99,-42,104
COc1ccc(NC(=O)Nc2nnc(-c3ccccc3F)s2)cc1,10,·,102,i,0.94,·,·
O=C(CS(=O)(=O)Cc1ccccc1)Nc1cccnc1,-3,-2.5,109,·,·,0,141
O=c1[nH][nH]cc1C=Nc1ccccc1O,-7,-2.2,85,i,0.89,·,·

# Not a retest: 4 of the compounds above.
SMILES,PKD1 kinase inh,GALR2 agonist,RGS16-Gao,HSV augment,HSV augment primary fold,Insulin prom inh,Insulin prom inh cell count
O=C1CSC(=O)N1CC(O)COc1ccc(Cl)cc1 (centres undefined),2,-0.3,95,i,0.72,·,·
O=C(Nc1ccccc1)c1cccc(=O)o1,·,·,96,i,0.91,·,·
Cc1nc(C)c(-c2csc(N)n2)s1,-4,·,102,i,1.1,-11,86
COC(=O)c1c(C(=O)OC)c(C)n(Cc2cccnc2)c1C,-8,-0.8,97,i,0.99,-107,126

# Later entries.
SMILES,PKD1 kinase inh,GALR2 agonist,RGS16-Gao,HSV augment,HSV augment primary fold,Insulin prom inh,Insulin prom inh cell count
O=C(COC(=O)C1COc2ccccc2O1)NC1CCS(=O)(=O)C1 (centres undefined),-3,0.6,99,i,1.1,0,142
Cc1csc(NC(=O)c2cccn2C)n1,-4,-1.3,93,i,1.2,24,128
COc1ccc(NC(C)=O)cc1S(=O)(=O)Nc1ccc2c(c1)OCCO2,4,·,94,i,0.98,·,·
NS(=O)(=O)c1ccc(CNC(=O)c2ccc(Cl)cc2[N+](=O)[O-])cc1,-9,-0.3,127,i,0.91,-24,88
COc1ccc(Cn2c(C)nc([N+](=O)[O-])c2SCC(=O)O)cc1[N+](=O)[O-],-7,·,108,i,0.81,·,·
COc1ccc(NC(=S)NNC(=O)c2cccnc2)cc1OC,0,·,103,i,0.99,47,88
COc1cnn(-c2ccccc2)c(=O)c1N(C)C,1,-0.1,103,i,0.97,-271,88
O=C(CCc1ccccc1)NCCCN1CCOCC1,10,-1.3,106,i,0.86,·,·
Cc1cc(C(=O)COC(=O)c2ccc(O)cc2)c(C)n1Cc1ccco1,0,-1.5,101,i,0.94,38,137
COc1ccc(-c2csc(C)n2)cc1Br,-3,·,98,i,0.97,41,113
COc1cccc(NC(=O)C2CCCN(S(=O)(=O)c3cccc4cccnc34)C2)c1 (centres undefined),-8,-1.9,76,i,0.91,·,·
CCCCNC(=O)CCCn1c(=O)[nH]c2ccc(Br)cc2c1=O,10,-1.5,101,i,0.87,·,·
Cc1cccc(C)c1NC(=O)C1c2cccc[n+]2CC(=O)N1Cc1cccs1 (centres undefined),-2,·,100,i,1,19,57
COc1cccc(-n2c(C)nnc2SCC(=O)Nc2ccccc2N2CCOCC2)c1,5,0.4,101,i,0.89,-15,152
O=C(O)CCNS(=O)(=O)c1ccc2c(c1)Cc1ccccc1-2,-1,-1.1,105,i,0.93,50,134
O=C(NCCc1ccccc1)C1CCC(CNc2nc(=S)[nH]c3ccccc23)CC1 (centres undefined),1,·,102,i,0.98,-21,84
COC(=O)c1ccc(C(=O)OC)c(NC(=S)N2CCC(C(N)=O)CC2)c1,-1,·,99,i,0.96,·,·
